HPGD block = qHTS Assay for Inhibitors of HPGD (15-Hydroxyprostaglandin Dehydrogenase); 15-hydroxyprostaglandin dehydrogenase [NAD(+)] (Homo sapiens), P15428; purified HPGD, NADH fluorescence kinetic, PGE2 substrate; Potency, µM, for inactives: top-dose activity change, negative = inhibition, hits mostly inhibitors; 150,000 tested, 4.3% active; AID 894, 2007; active = well fitted inhibition curve with a large enough effect (not every such curve was filed as active); inconclusive = small, poorly fitted or top-dose-only effect, or another doubt; inactive = no such curve, though single readings can be large or run the other way;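 note: top concentration of the series not given in the record; plate controls included wells without enzyme; inactives centre near -10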
Target sequence (P15428 whole entry, looked up): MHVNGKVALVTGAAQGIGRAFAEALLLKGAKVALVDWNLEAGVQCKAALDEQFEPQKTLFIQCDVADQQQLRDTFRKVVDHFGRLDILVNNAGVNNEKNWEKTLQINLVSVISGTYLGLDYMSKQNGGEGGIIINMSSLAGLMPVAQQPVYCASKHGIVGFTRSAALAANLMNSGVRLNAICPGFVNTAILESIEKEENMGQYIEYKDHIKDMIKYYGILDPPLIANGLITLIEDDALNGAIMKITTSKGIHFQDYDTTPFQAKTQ
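20 nM HPGD preincubated 15 min at room temperature with compound in 50 mM Tris-HCl pH 8, 0.01% Tween 20. Started with 1 mM NAD+ and 30 uM prostaglandin E2; NADH fluorescence (360/450 nm) read 5 times over 30-s intervals, last minus first.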
* = called active by the depositor; ? = inconclusive; & = joins results of further samples. % is set by controls: 0 for no effect and ±100 for the full control effect; potency is the fitted concentration of half-maximal effect.

SMILES	HPGD block
O=C(O)c1nn(-c2ccc(Cl)cc2)ccc1=O	-11%
Cc1nc2ccc(C(=O)N3CCN(c4ccccc4)CC3)cc2s1	-3%
CC(C)N1CC=C2C(C#N)=C(N)C(C#N)(C#N)[C@H](c3ccoc3)[C@H]2C1	?
CCn1c(SCc2ccc(C(=O)Nc3nccs3)cc2)nnc1-c1ccc(NC(C)=O)cc1	-20%
CC1CCCC(NC(=O)C2CCN(S(=O)(=O)N3CCCCCC3)CC2)C1C (centres undefined)	-10%
CCCn1nnnc1-c1cccc(Cl)c1	1%
COc1ccc(C2c3c(oc4ccccc4c3=O)C(=O)N2c2ccc(C)cn2)cc1OC (centres undefined)	-2%
COC(=O)c1cccc(C23CC4(C2)[C@H](CN(Cc2cccnc2)[C@@H]4c2ccccc2)C3c2ccc(C(F)(F)F)cc2)c1 (some centres undefined)	-6%
O=C(/C(=N/N=C/c1ccc(O)c(O)c1O)c1ccccc1)c1ccccc1	2µM*
O=[N+]([O-])c1ccccc1SN(Cc1ccccc1)c1ccccn1	-5%
O=C1C(Cl)=C(NCCc2ccccc2)C(=O)N1CCc1ccccc1	-16%
CC1Cc2ccccc2N1C(=O)CSc1nnc(-c2ccc(S(=O)(=O)N3CCCCC3)cc2)o1 (centres undefined)	-5%
CCN1C(=O)/C(=C/c2ccc(C)s2)NC1=S	-11%
CCC1(c2ccc(Cl)cc2)NC(=S)N(c2ccccc2)N1 (centres undefined)	-17%
O=C(Nc1nc(-c2cccs2)c(-c2cccs2)s1)C1(c2ccccc2)CC1	?
CCC1CCCCN1CCCNC(=O)c1cn(CC(C)C)c(=O)c2cc(OC)c(OC)cc12 (centres undefined)	-20%
CN1CCN(c2cc(-c3ccccc3)nc3cc(-c4ccc(F)cc4)nn23)CC1	?
CC1CCCN(C(=O)COC(=O)c2ccc[nH]c2=O)C1 (centres undefined)	-8%
COC(=O)CN1CCN(C(c2ccccc2)c2ccccc2)CC1	-14%
Cc1cccc(N(CC(=O)NC2CCCC2)C(=O)CS(=O)CC(=O)Nc2ccc3c(c2)OCO3)c1 (centres undefined)	0%
Nc1nc2c(nc(Br)n2C2CC(O)C(CO)O2)c(=O)[nH]1 (centres undefined)	-5%
O=C(c1cc2ccccc2oc1=O)N1CCCC1	-18%
Cc1ccccc1S(=O)(=O)Cc1ccc(C(=O)N2CCN(c3cccc(C)c3C)CC2)o1	-8%
CCOC(=O)C(=O)Nc1ccc(F)cc1	-13%
CCOC(=O)c1c(-c2ccccc2)nnn1-c1nc(OCC)nc(N2CCCCC2)n1	-16%
O=C(COc1ccc(F)cc1)NCC1CCCO1 (centres undefined)	-19%
Cc1ccc(NC(=O)CC2C(=O)NCCN2C(=S)Nc2ccccc2)c(C)c1 (centres undefined)	-16%
CN(CC(=O)Nc1ccc(N2CCOCC2)cc1)CC(=O)Nc1ccccc1C#N	6%
CSc1ccc2c(c1)[C@H](N1CCN(C)CC1)Cc1ccccc1S2	-6%&3%
COc1ccc2c(c1)[nH]c1c(=O)n(CCCN3CCOCC3)cnc12	-11%
Cc1ccc(NC(=O)c2cc(N3C(=O)C4CC=CCC4C3=O)ccc2N2CCOCC2)cc1Cl (centres undefined)	-28%
CCOc1ccc(C(=O)CN2CCN(S(=O)(=O)c3ccc(F)cc3)CC2)cc1	-1%
CCCCn1c(NCc2ccccc2O)nc2ccccc21	?
COc1ccc(CCNC2=NCCS2)cc1	-17%
COC(=O)CCC(=O)OC1(C)C(=O)C=C2C=C(C3CC3)N(C(CO)CO)C=C2C1=O (centres undefined)	-2%
O=C(CSc1ncn[nH]1)N(C1CCCCC1)C1CCCCC1	-12%
CCN(CCO)CCCC(C)Nc1ccnc2cc(Cl)ccc12 (centres undefined)	-6%&-6%
O=C(O)c1ccc(S(=O)(=O)Nc2ccc(F)c(Cl)c2)cc1	2%
CC(OC(=O)c1cc2sccc2n1C)C(=O)NCCc1ccccc1 (centres undefined)	-12%
c1ccc(-n2nnnc2SCCCSc2nc3ccccc3s2)cc1	11µM*
CCCSc1nc2c(cnn2-c2ccc(C)c(C)c2)c(=O)[nH]1	-1%
CCN(CC)c1ccc(N=Cc2c(C)[nH]c3ccccc23)cc1	?
CC1(C)Cc2c(C#N)c(SCCOc3ccccc3)nc(N3CCOCC3)c2CO1	?
COc1ccc(S(=O)(=O)N2CCOCC2)cc1NC(=O)Cc1c(Cl)cccc1Cl	-3%
Cc1cccc(C)c1NC(=O)COc1cccc(/C=N/NC(=O)C(=O)NCc2ccccc2)c1	-2%
Cc1nn(Cc2c(F)c(F)c(F)c(F)c2F)c(C)c1NC(=O)c1c(-c2ccccc2)nn(-c2ccccc2)c1C	0%
O=[N+]([O-])c1cc(S(=O)(=O)N2CCCC2)ccc1N/N=C/c1ccccn1	-14%
CCOC(=O)N1CCN(CC(O)COc2ccccc2C(C)C)CC1 (centres undefined)	-7%

7 entries from above, sorted by length of the SMILES, smallest number first.
SMILES	HPGD block
CCN(CCO)CCCC(C)Nc1ccnc2cc(Cl)ccc12 (centres undefined)	-6%&-6%
c1ccc(-n2nnnc2SCCCSc2nc3ccccc3s2)cc1	11µM*
CCOC(=O)N1CCN(CC(O)COc2ccccc2C(C)C)CC1 (centres undefined)	-7%
CC(OC(=O)c1cc2sccc2n1C)C(=O)NCCc1ccccc1 (centres undefined)	-12%
CC1(C)Cc2c(C#N)c(SCCOc3ccccc3)nc(N3CCOCC3)c2CO1	?
O=[N+]([O-])c1cc(S(=O)(=O)N2CCCC2)ccc1N/N=C/c1ccccn1	-14%
Cc1cccc(C)c1NC(=O)COc1cccc(/C=N/NC(=O)C(=O)NCc2ccccc2)c1	-2%

Continued:
SMILES	HPGD block
CCCC12CN3CC(C)(CN(C1)C31C(=O)Nc3ccc(C)cc31)C2=O (centres undefined)	-4%
COc1ccccc1C(=O)NCC(=O)Nc1ccccc1	-3%
CN(c1ccc(C(=O)Nc2ccccc2C(=O)N2CCCC2)cc1)S(C)(=O)=O	-17%
O=C(Nc1ccc2c(c1)OCCO2)c1cncc(Br)c1	-7%
CCCCCC(/C=N/Nc1ccc(S(=O)(=O)N2CCOCC2)cc1[N+](=O)[O-])=C\c1ccccc1	-10%
O=C(C1CCN(S(=O)(=O)N2CCC3(CC2)OCCO3)CC1)N1CCc2ccccc2C1	?
Cc1cc(C)n(Cc2n[nH]c(=S)n2Cc2ccccc2)n1	0%
Cc1ccc(S(=O)(=O)N2CCN(C(=O)CCC(=O)NCc3ccc(F)cc3)CC2)cc1	-7%
COC(=O)c1cc(=O)nc2sccn12	?
CCN(CC)S(=O)(=O)c1ccc(C)c(C)c1	-16%
COCCn1c(=O)c(-c2ccc(F)cc2)nc2cnc(OCc3ccccc3)nc21	?
COc1cccc(C2=NOC(C(=O)NCc3ccco3)C2)c1 (centres undefined)	-29%
O=C(c1ccccc1)c1cc([N+](=O)[O-])ccc1N1CCCC1	-4%
CCOC(=O)c1[nH]c2ccc(OC)cc2c1NC(=O)N1CCOCC1	?
COC(=O)c1ccccc1NC(=O)CSc1nnc(CNS(=O)(=O)c2ccc(C)cc2)n1C	-10%
COc1ccc(Cc2nnc(NC(=O)Cc3cccs3)s2)cc1OC	?
COc1cc2nc3c4ccccc4n(CC#N)c3nc2cc1OC	?
COc1ccc(S(=O)(=O)Cc2ccc(C(=O)N3CCc4ccccc4C3)o2)cc1	-6%
COc1cccc(CN(C)CC(=O)Nc2cccc(S(N)(=O)=O)c2)c1OC	2%
Cc1cccc(-n2ncc3c(N4CCCc5ccccc54)ncnc32)c1	?
CCOc1cc(/C=N/NC(=O)CSc2nnc(C)s2)ccc1OCc1ccccc1Cl	-3%
CC(=O)Nc1nc(C2COc3ccccc3O2)cs1 (centres undefined)	-11%
COC(=O)C1=C(C)N(CC(C)C)C(=O)/C1=C\c1cccs1	-3%
Cc1ccc(Cn2c(NS(=O)(=O)c3ccccc3)nc3ccccc32)cc1	-14%
Cc1nonc1C(=O)N/N=C/c1ccc(O)c(O)c1	32µM*
S=c1[nH]cc(-c2ccccc2)n1-c1ccccc1Cl	18µM*
N#Cc1ncc(-c2ccc3c(c2)OCCOCCOCCOCCO3)nc1C#N	-3%
CCCCOc1ccc(/C=C/C(=O)Nc2ccc(C(N)=O)cc2)cc1	-10%
O=C(O)c1ccccc1C(=O)c1ccc(Oc2ccccc2)cc1	-3%
COc1ccc2c(c1)O[C@H](c1ccc3c(c1)OCO3)[C@@H](OC(=O)NC1CCCC1)C2=O	-6%
O=C(O)C1C(c2ccccc2)C(C(=O)Oc2ccc(O)cc2)C1c1ccccc1 (centres undefined)	-1%
COc1ccc(C(=O)Nc2sc(C)c(C)c2CN2CCOCC2)cc1	-12%
CCN=C(N/N=C/c1ccc([N+](=O)[O-])cc1)SC	-16%
Cc1ncc(N=Nc2ccc(F)cc2)c(-c2ccc(Cl)cc2)n1	-4%
COCC(=O)Nc1cc(C(=O)Nc2ccccc2C)ccc1Cl	-8%
CCC1=C(OC(=O)N(CC)CC)N2C(=O)OC(=NCC3CC3)[C@]2(C)[C@H]2C1=CC[C@H]1C(=O)N(C)C(=O)[C@H]12	-9%
CSc1nc(N(C)NC(=O)c2cccc(C)c2)c2ccccc2n1	-15%
CC1CCN(C(=O)c2cc3ccccc3c(=O)o2)CC1	25µM*
COc1cccc(/C(O)=C/C(=O)C(=O)Nc2ccc(S(=O)(=O)NC(C)=O)cc2)c1	-7%
OC(COCC(F)(F)C(F)(F)C(F)(F)C(F)F)Cn1c2ccccc2c2ccccc21 (centres undefined)	?
O=c1cc(Nc2ccc3c(c2)OCCO3)[nH]c(=O)n1C1CCCCC1	-19%
Cc1ccc(C2(C)NC(=O)N(CC(=O)NCCC3=CCCCC3)C2=O)cc1 (centres undefined)	-11%
Cc1nc2ccc(NC(=O)c3cc([N+](=O)[O-])cc([N+](=O)[O-])c3Cl)cc2s1	7.1µM*
CC(=O)Nc1cccc(-c2nnc(SCc3ccccc3C#N)n2C)c1	3%
CCC(Sc1ccccn1)C(=O)Nc1nnc(C)s1 (centres undefined)	-7%
CCOC(=O)C1=C(N)n2c(s/c(=C/c3ccco3)c2=O)=C(C(=O)OC)C1c1ccco1 (centres undefined)	-29%
CC(=Nc1ccc(C)cc1)c1sc2ccccc2c1O	-8%
CC1(C)CC(=O)C(Sc2nnc(-c3ccc(NS(C)(=O)=O)cc3)n2Cc2ccco2)C(=O)C1	-25%

HPGD block, hit marks shown above
SMILES	HPGD block
O=C(/C(=N/N=C/c1ccc(O)c(O)c1O)c1ccccc1)c1ccccc1	2µM*
c1ccc(-n2nnnc2SCCCSc2nc3ccccc3s2)cc1	11µM*
Cc1nonc1C(=O)N/N=C/c1ccc(O)c(O)c1	32µM*
S=c1[nH]cc(-c2ccccc2)n1-c1ccccc1Cl	18µM*
CC1CCN(C(=O)c2cc3ccccc3c(=O)o2)CC1	25µM*
Cc1nc2ccc(NC(=O)c3cc([N+](=O)[O-])cc([N+](=O)[O-])c3Cl)cc2s1	7.1µM*

Other results follow.
SMILES	HPGD block
Nc1nc(F)nc2c1ncn2[C@@H]1O[C@H](CO)[C@@H](O)[C@@H]1O	-3%
CC(=O)NCCCCCCNC(C)=O	-2%
O=S1(=O)C=CC(N2CCOCC2)C1 (centres undefined)	-4%
O=C1c2cccnc2Oc2ccc(Cl)cc2N1Cc1ccc(F)cc1	-15%
CN(C)S(=O)(=O)c1ccc(C(=O)NCCSc2ccc(Br)cc2)cc1	-8%
Cc1cc(C)c(C(=O)/C=C/c2ccc(C(C)C)cc2)c(=O)[nH]1	0%
COc1cccc2c1OC1(C)CC2NC(=O)N1c1cccc(C(=O)N2CCN(c3ccccn3)CC2)c1 (centres undefined)	-12%
O=C1/C(=C/c2ccccc2)Nc2ccccc21	18µM*
COc1cccc(OC)c1C(=O)N1CC(C)OC(C)C1 (centres undefined)	-7%
Cc1cc(C)nc(NC(=NCc2ccc3c(c2)OCO3)NC(=O)Nc2ccccc2)n1	-10%
Cc1ccc(N(CC(=O)NC2CCCCC2)C(=O)c2ccc(C)s2)cc1	-15%
S=C1NCCc2ccccc2C1c1ccccc1Cl (centres undefined)	-7%
O=C(CCN1C(=O)c2ccccc2C1=O)NCc1ccco1	-4%
CCn1c(SCC(=O)NC(=O)Nc2ccc3c(c2)OCCO3)nnc1-c1cccs1	?
COc1ccc(CNC(=O)c2onc(C)c2Cl)cc1	-7%
Cc1ccc(C(=O)COC(=O)c2ccc3c(c2)C(=O)N(c2cccc4ncccc24)C3=O)cc1	-10%
Cc1ccc(SCc2nc(-c3cccnc3)no2)cc1	-15%
CCOC(=O)C1=C(C)NC(=O)NC1c1ccccc1OCc1c(F)cccc1Cl (centres undefined)	-19%
Cc1cccc(NC(=S)NNC(=O)c2ccc(Br)o2)c1	-24%
O=C(Cc1ccc([N+](=O)[O-])cc1)N1CCc2ccccc2C1	-11%
COc1ccc(-c2cc(=O)c3ccc(F)cc3[nH]2)cc1	-10%
Cn1c(CCN2CCCCC2)nc2cc([N+](=O)[O-])ccc21	-27%
FC(F)(F)c1cnc(-c2cnc3c(-c4ccc(Cl)cc4)cnn3c2)c(Cl)c1	-9%
CCN(CC)S(=O)(=O)c1ccc(C2=NOC3(C2)N(C)c2ccccc2C3(C)C)cc1 (centres undefined)	-17%

A stretch taken from the entries so far, as a working copy:
SMILES	HPGD block
FC(F)(F)c1cnc(-c2cnc3c(-c4ccc(Cl)cc4)cnn3c2)c(Cl)c1	-9%
CCN(CC)S(=O)(=O)c1ccc(C2=NOC3(C2)N(C)c2ccccc2C3(C)C)cc1 (centres undefined)	-17%

(more compounds)
SMILES	HPGD block
CCCOc1ccc(OCC(=O)c2[nH]c(C)c(C(C)=O)c2C)cc1	-4%
CCN1CCN(C(=O)c2ccc3c(=O)n(CCC4=CCCCC4)c(=O)[nH]c3c2)CC1	-2%
CC(=O)OC(C(=O)NCc1ccco1)c1ccncc1 (centres undefined)	-6%
N#C/C(=C\c1c(N(Cc2ccccc2)Cc2ccccc2)nc2ccccn2c1=O)C(N)=O	-4%

Bioassay records: PubChem BioAssay, National Center for Advancing Translational Sciences (NCATS)

The list is partial; rates above refer to the full screens.
